Screens: PubChem BioAssay, several laboratories
PABP polyA inh = PABP poly(A) RNA binding inhibitors, primary screen, biochemical, fluorescence polarization, uHTS; 290,000 tested, 1% active; AID 2014, 2009; inhibition, % at 35 µM;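 active = 50% or more with normal probe brightness, or confirmed in later tests; inconclusive = above 50% with abnormal brightness, or retests that disagree; inactive = below 50% or failed in later tests; about a fifth of its hits are not listed in these tables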;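 also: calls also rest on retests at 20 µM and on dose response follow-up; controls were probe without protein and protein plus probe with vehicle; some compounds called inactive have numbers as strong as hits; many hits fall short of the cut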
Target sequence (P11940 whole entry, looked up): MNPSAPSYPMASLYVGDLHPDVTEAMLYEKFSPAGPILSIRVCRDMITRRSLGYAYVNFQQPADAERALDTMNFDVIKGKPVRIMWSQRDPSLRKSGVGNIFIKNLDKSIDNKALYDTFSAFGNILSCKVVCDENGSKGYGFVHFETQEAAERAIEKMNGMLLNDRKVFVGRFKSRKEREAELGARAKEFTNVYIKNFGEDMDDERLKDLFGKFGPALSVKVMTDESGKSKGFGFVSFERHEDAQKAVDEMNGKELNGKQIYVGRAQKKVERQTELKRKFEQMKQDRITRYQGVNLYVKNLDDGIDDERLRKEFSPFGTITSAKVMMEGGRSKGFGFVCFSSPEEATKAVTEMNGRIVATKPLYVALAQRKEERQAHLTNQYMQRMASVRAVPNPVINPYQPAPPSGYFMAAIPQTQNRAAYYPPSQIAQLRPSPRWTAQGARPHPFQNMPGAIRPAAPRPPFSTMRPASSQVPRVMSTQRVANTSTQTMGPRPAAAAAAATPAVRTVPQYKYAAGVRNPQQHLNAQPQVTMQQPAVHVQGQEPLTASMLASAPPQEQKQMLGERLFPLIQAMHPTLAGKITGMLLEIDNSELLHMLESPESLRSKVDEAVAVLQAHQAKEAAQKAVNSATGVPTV
MT1-MMP act inh = blockers of MT1-MMP proenzyme processing, primary screen, HT1080 RFP-PRO-GFP cells, GFP/RFP fluorescence; Matrix metalloproteinase-14 (Homo sapiens), P50281; GFP/RFP ratio change, % at 20 µM; 360,000 tested, 0.061% active; AID 651647, 2012; GFP/RFP ratio fluorescence, overnight; percent of plate control window, DMSO zero;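 active = GFP/RFP ratio change of at least 30% with cell ATP level not reduced by more than half and red fluorescence within 50% of control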; also: strong numbers were not always called active
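Assay system: HT1080 cells carrying an RFP-PRO-GFP reporter | Dosing: Single dose of 20 µM compound, 1% DMSO final | Incubation: Cells overnight before dosing, compound overnight, 37 °C, 5% CO2 | Evaluation: GFP/RFP fluorescence ratio | Control set: DMSO and RFP-L50D-GFP cell wells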
HIV Env fusion = inhibitors of HIV-1 Env-driven cell-cell fusion, primary screen, HeLa-JRFL effector, CEM21 target cells, luciferase; 360,000 tested, 1.1% active; AID 651610, 2012; inhibition, % at 12.3 µM;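 active = mean replicate inhibition score of at least 50 and every replicate individually at or above 50; inconclusive = only one of the two criteria met; inactive = mean below 50 and not all replicates reaching 50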;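 also: 0% = plate neutral controls and 100% = maraviroc near 300 nM; one replicate is shown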
eIF4H inh = human eIF4H binding inhibitors, primary screen, translation initiation inhibitor project, biochemical, uHTS, fluorescence polarization; eIF4H fluorescence polarization binding assay; inhibition, % at 35 µM; 290,000 tested, 0.94% active;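 active = 50% or more with normal probe brightness, or confirmed in later tests; inconclusive = above 50% with abnormal brightness, or retests that disagree; inactive = below 50% or failed in later tests; about a fifth of its hits are not listed in these tables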;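 also: calls also rest on retests at 20 µM and on dose response follow-up; 0% = protein and probe with vehicle and 100% = probe without protein; strong numbers were not always called active; many hits fall short of the cut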
Rce1 inhib = yeast Rce1p protease inhibitors, primary screen, biochemical, fluorescence, cell-free homogeneous; yeast membranes, quenched prenylated peptide cleavage fluorescence; calls only; 290,000 tested, 0.27% active;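 active = fall in fluorescence gain of 50% or more versus controls, with final raw signal at or below 3038400; inconclusive = same 50% fall but final raw signal above 3038400; inactive = fall in fluorescence gain under 50%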;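 also: plate controls were neutral control wells for no effect and wells lacking membranes for full effect; tested at 10 µM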
Target sequence (Q03530 whole entry, looked up): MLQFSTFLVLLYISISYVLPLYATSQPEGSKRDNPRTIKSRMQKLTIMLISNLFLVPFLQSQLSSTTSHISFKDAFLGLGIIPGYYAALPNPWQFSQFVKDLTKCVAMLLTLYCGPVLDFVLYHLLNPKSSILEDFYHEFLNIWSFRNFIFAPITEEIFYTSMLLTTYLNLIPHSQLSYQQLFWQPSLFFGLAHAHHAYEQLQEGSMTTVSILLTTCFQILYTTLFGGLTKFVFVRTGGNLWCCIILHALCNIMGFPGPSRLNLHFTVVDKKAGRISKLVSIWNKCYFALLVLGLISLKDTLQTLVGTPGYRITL
CSC inhib = cancer stem cell viability inhibitors, primary screen, luminescence; cancer stem cell-like cells viability; inhibition, % at 7.5 µM; 300,000 tested, 1.1% active;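 active = mean at 75% or more and at least half the replicates too; inconclusive = mean and replicates disagree; tested in HMLE shEcad cells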;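 also: 0% = median of negative and 100% = median of positive control wells; the first replicate is given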
UUG fidelity = modulators of yeast start codon fidelity, primary screen, whole organism, S. cerevisiae, single point, plate reader; S. cerevisiae UUG-firefly luciferase reporter, luminescence/redox ratio; activity score, % at 18.7 µM; 350,000 tested, 0.13% active; AID 602363, 2012;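 active = replicate mean at a twofold rise or more, about +100% in these data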;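 also: firefly luciferase made from a UUG start codon reports start codon fidelity; reporter light over untreated wells divided by growth signal over untreated wells; some hits fall short of that in this replicate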
eIF4H inh retest = further read-out of eIF4H inh, marked with its call; inhibition, %; compound at 20 µM; confirmation average;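 mean of two retest wells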
PABP polyA inh retest = further read-out of PABP polyA inh, marked with its call; inhibition, %; compound at 20 µM; confirmation repeats;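 mean of two retest wells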
MT1-MMP act inh RFP = second read-out of MT1-MMP act inh, no call of its own (marks repeat the call); RFP signal change, %; measured here: RFP expression control read;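 0 = vehicle wells; hits needed this value within 50% of zero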
* marks the source's active call; other numbers are inactive results; i = inactive; ? = inconclusive; / = not tested or not shown.

SMILES	PABP polyA inh	MT1-MMP act inh	MT1-MMP act inh RFP	HIV Env fusion	eIF4H inh	Rce1 inhib	CSC inhib	UUG fidelity	others
COCCNC(=O)c1cn(C(C)c2ccccc2F)nn1 (stereo unspecified)	-6.2	/	/	-0.9	-2.9	i	9.3	/
CCOc1ccc(NC(=O)NCC2CCN(c3ccc(OC)cc3)C2)cc1 (stereo unspecified)	1.3	-0.9	5.0	-14.1	0.8	i	-7.0	2.9
CCOc1ccccc1N1CC(C(=O)NCCOc2ccccc2OC)CC1=O (stereo unspecified)	13.8	1.4	6.9	/	4.1	i	-12.8	-17.0
COc1ccc(S(=O)(=O)N2CCOCC2)cc1NC(=O)C1CCN(S(=O)(=O)c2ccc(Cl)cc2)CC1	/	-0.4	0.1	-22.3	/	/	/	-13.1
CCOc1ccc(Br)cc1CNCc1cccnc1	6.0	-5.1	-1.2	4.9	2.6	i	/	-15.3
O=C1CC(=O)Nc2cc(S(=O)(=O)Nc3ccc(F)cc3Cl)ccc2N1	0.5	-0.9	-0.9	-30.8	0.5	i	/	-8.5
Cc1cc(C)cc(N2C(=O)CC(Sc3ncn[nH]3)C2=O)c1 (stereo unspecified)	-3.7	2.6	0.6	21.2	-12.1	i	0.1	/
O=C1C(Nc2ccccc2)=C(NS(=O)(=O)c2ccccc2)C(=O)c2ccccc21	0.8	9.6	2.2	22.4	1.0	i	18.5	-11.4
C/C(N)=C(/C#N)C(=O)COC(=O)c1ccccc1Cc1ccccc1	4.7	-0.6	-1.5	21.2	16.2	i	-2.5	/
Cc1ccc(S(=O)(=O)N2CCCCC2)cc1NC(=O)CSc1ccc2c(c1)OCCO2	-19.2	4.9	-0.7	/	0.7	i	18.0	-15.2
CN1CCN(C2CN(CCc3ccccc3)S(=O)(=O)C2)CC1 (stereo unspecified)	/	-0.6	4.1	-69.8	/	/	/	-8.0
CCOC(=O)N1CCN(C(=S)NC(=O)c2ccc(F)c(F)c2)CC1	4.9	6.7	4.0	-1.3	-7.3	i	-4.5	/
Cc1c(C)n(C)c2ccc(C(=O)NCCCN3CCOCC3)cc12	0.1	-0.3	0.8	5.3	0.4	i	2.5	-8.4
CN(C)c1cccc(C(=O)OCCCC(=O)c2ccc(F)cc2)c1	/	1.1	-1.2	2.6	/	/	-4.4	3.6
O=C(COc1ccc2c(c1)OCO2)Nc1ccccc1F	-10.1	-0.2	2.2	-35.6	-7.5	i	5.2	-28.7

4 consecutive entries already listed, for reference:
SMILES	PABP polyA inh	MT1-MMP act inh	MT1-MMP act inh RFP	HIV Env fusion	eIF4H inh	Rce1 inhib	CSC inhib	UUG fidelity	others
CCOC(=O)N1CCN(C(=S)NC(=O)c2ccc(F)c(F)c2)CC1	4.9	6.7	4.0	-1.3	-7.3	i	-4.5	/
Cc1c(C)n(C)c2ccc(C(=O)NCCCN3CCOCC3)cc12	0.1	-0.3	0.8	5.3	0.4	i	2.5	-8.4
CN(C)c1cccc(C(=O)OCCCC(=O)c2ccc(F)cc2)c1	/	1.1	-1.2	2.6	/	/	-4.4	3.6
O=C(COc1ccc2c(c1)OCO2)Nc1ccccc1F	-10.1	-0.2	2.2	-35.6	-7.5	i	5.2	-28.7

(continued)
SMILES	PABP polyA inh	MT1-MMP act inh	MT1-MMP act inh RFP	HIV Env fusion	eIF4H inh	Rce1 inhib	CSC inhib	UUG fidelity	others
COc1ccc(CCNc2nc(-c3ccc(NC(C)=O)cc3)cs2)cc1OC	-5.9	2.4	-4.5	18.7	-3.6	i	-12.2	-13.6
COc1cc(/C=C2/C(=N)N3C(=NC2=O)SN=C3S(C)(=O)=O)ccc1OS(=O)(=O)c1ccccc1	7.0	/	/	/	-0.5	i	-7.0	/
CCOC(=O)Cc1[nH]nc2c1C(c1ccsc1)C(C#N)=C(N)O2 (stereo unspecified)	-9.4	-0.6	0.4	-1.2	-2.8	i	-6.3	/
CC(C)C(NC(=O)Cc1ccccc1[N+](=O)[O-])C(C)C	-9.5	-2.6	5.0	42.4	-8.6	i	-10.3	/
CCCCn1c(-c2ccco2)nc2oc3ccccc3c(=O)c2c1=O	3.0	2.9	-0.7	-10.6	-3.1	i	-11.5	/
COc1ccc(C(=O)N/C(=C/c2ccco2)C(=O)N2CCCCCC2)cc1	20.4*	-11.0	6.6	5.7	53.4	i	0.5	3.9	eIF4H inh retest=24.1;PABP polyA inh retest=111.8*
COC(=O)Sc1nnc(-c2ccc(Br)cc2)o1	-7.7	/	/	/	-8.3	i	1.3	/
CN(C)C(CNC(=O)CCCOc1ccccc1)c1ccco1 (stereo unspecified)	1.0	4.3	8.4	-23.6	0.1	i	2.5	-0.9
Cc1cccc(NC(=O)COC(=O)CCc2c[nH]c3ccccc23)c1	/	2.8	6.7	-32.4	/	/	/	-17.5
Brc1ccccc1OCCN1CCOCC1	12.9	-1.4	3.9	9.4	6.0	i	-14.4	-12.0
CCOc1ccccc1NC(=O)/C=C/c1ccccc1[N+](=O)[O-]	0.2	-2.8	-3.6	22.0	-4.5	i	-5.8	/
COCC(C)n1c(SCC(=O)Nc2c(C)n(C)n(-c3ccccc3)c2=O)nc2ccccc2c1=O (stereo unspecified)	/	-1.4	1.1	/	/	/	-21.2	-10.3
CCn1c2ccccc2c2cc(CN3CCN(S(C)(=O)=O)CC3)ccc21	-7.7	1.3	-10.2	30.6	-7.2	i	24.7	-6.0
Cc1ccc(Cl)cc1NS(=O)(=O)c1ccc2c(c1)NC(=O)C(C)C(=O)N2 (stereo unspecified)	-3.6	-2.7	5.6	-53.6	-3.1	i	5.2	1.1
CCN(CC)S(=O)(=O)c1ccc(C)c(NC(=O)CSc2ncc(C(F)(F)F)cc2Cl)c1	-0.5	-6.8	-2.7	22.2	-0.1	i	-3.6	/
Cc1nc(N2CCCCC2C)c2c(C)c(C(=O)Nc3cccc(C(F)(F)F)c3)sc2n1 (stereo unspecified)	-3.4	-3.1	-12.5	9.1	-5.6	i	/	/
COc1cc(C(=O)OCCc2cc3ccccc3c(=O)o2)cc(OC)c1OC	/	-2.8	-9.2	-81.0	/	/	71.5	7.8
Cc1ccc(N(CC(=O)NC2CCCCC2)S(=O)(=O)c2cccs2)cc1	-3.3	-2.7	-0.4	5.9	-7.1	i	-5.6	-6.6
Cn1c(SCC(=O)N2CCCC2)nc2c(c1=O)SCC2	/	0.2	2.3	-1.2	/	/	/	-26.6
CCOC(=O)c1nnn(-c2nonc2N)c1CSc1ccccn1	0.9	-5.7	-6.1	-11.3	-4.8	i	-0.7	-18.5
CCCCN(CCCC)C(=O)c1cc2ccccc2c(=O)o1	2.1	-0.1	0.1	23.0	5.5	i	8.3	0.4
O=C(CN1C(=O)C2CCCCC2C1=O)Nc1ccccc1C(=O)O (stereo unspecified)	-0.2	-0.3	2.4	-0.5	-5.1	/	-13.8	-3.6
COC(=O)CNC(=O)c1ccccc1C	1.8	2.6	3.2	-29.0	2.5	i	-8.3	-23.1
CCNC(=S)Nc1ccc(Cl)c(C(F)(F)F)c1	13.2	2.5	0.6	13.2	6.2	i	-35.4	-20.5
CCOCCN1CCN(c2c3c(nc4cc(-c5ccc(F)cc5)nn24)CCC3)CC1	-1.7	1.9	-4.0	/	-3.4	i	/	-16.5
CN(C(=O)COC(=O)c1cc([N+](=O)[O-])ccc1N1CCCC1)C1CCS(=O)(=O)C1 (stereo unspecified)	0.7	-6.1	4.0	-5.0	-5.8	i	4.8	/
O=C(/C=C/c1ccc(O)c(O)c1)OC(Cc1ccc(O)c(O)c1)C(=O)O (stereo unspecified)	3.4	4.9	7.8	/	27.5	i	-0.3	-15.3
CC(C)c1ccc(O)c(NC(=O)c2ncn[nH]2)c1	-12.1	3.9	8.5	-80.5	1.4	i	0.3	-16.3
CC(C)CNC(=S)Nc1ccc(Oc2ccccc2)cc1	2.6	-0.5	-6.4	-38.1	-2.2	i	/	/
COCc1c(N)c(C)nc(Cl)c1C#N	30.0	-2.8	0.3	-26.1	97.3	i	-6.6	/	eIF4H inh retest=26.0;PABP polyA inh retest=6.2

Sorted by molecular weight (ascending): some entries from above.
SMILES	PABP polyA inh	MT1-MMP act inh	MT1-MMP act inh RFP	HIV Env fusion	eIF4H inh	Rce1 inhib	CSC inhib	UUG fidelity	others
O=C(COc1ccc2c(c1)OCO2)Nc1ccccc1F	-10.1	-0.2	2.2	-35.6	-7.5	i	5.2	-28.7
C/C(N)=C(/C#N)C(=O)COC(=O)c1ccccc1Cc1ccccc1	4.7	-0.6	-1.5	21.2	16.2	i	-2.5	/
CCn1c2ccccc2c2cc(CN3CCN(S(C)(=O)=O)CC3)ccc21	-7.7	1.3	-10.2	30.6	-7.2	i	24.7	-6.0
CCN(CC)S(=O)(=O)c1ccc(C)c(NC(=O)CSc2ncc(C(F)(F)F)cc2Cl)c1	-0.5	-6.8	-2.7	22.2	-0.1	i	-3.6	/

Further entries
SMILES	PABP polyA inh	MT1-MMP act inh	MT1-MMP act inh RFP	HIV Env fusion	eIF4H inh	Rce1 inhib	CSC inhib	UUG fidelity	others
NC(=O)c1ccccc1NS(=O)(=O)c1ccccc1	-5.6	-0.1	3.6	-62.4	-1.1	i	4.7	-8.6
CNc1cncc(-c2ccc(C)cc2)n1	/	-4.4	-2.3	-102.3	/	/	/	15.8
CC(CC(=O)Nc1nc2ccccc2[nH]1)n1ccnc1 (stereo unspecified)	4.4	0.4	-0.9	-6.8	1.3	i	-9.7	-4.2
CCN(CC)C(=O)C1=C(C)N(Cc2ccccc2)C(=O)C(CC(=O)NCCCN(C)C)C1 (stereo unspecified)	/	0.8	2.0	-0.6	/	/	/	9.0
COc1cccc(C(=O)Nc2ccc(NC(=O)c3cc4ccccc4o3)c(OC)c2)c1	1.7	3.1	-2.4	-314.3	-4.0	i	-5.8	-16.1
Cc1ccc(Cn2c(C)c(C(=O)NCc3cccc(C(F)(F)F)c3)sc2=O)cc1	/	10.4	-0.6	-1.7	/	/	/	-6.7
COc1ccc(C(=O)NCCC2=CCCCC2)cc1S(=O)(=O)N1CCOCC1	/	-0.2	1.2	15.2	/	i	/	-8.2
Cc1ccc(S(=O)(=O)NCCC(=O)N2CCN(S(=O)(=O)c3ccccc3)CC2)cc1C	/	4.5	-2.1	-0.3	/	i	-1.2	6.3
Cc1ccc(C2C=C(c3ccc4c(c3)OCO4)Nc3ncnn32)cc1 (stereo unspecified)	11.0	-17.5	3.0	/	-4.6	i	-14.8	/
O=C(CCN1c2ccccc2Sc2ccccc21)OCC(=O)N1CCN(C(=O)c2ccco2)CC1	2.6	3.0	1.7	12.2	6.4	i	5.9	-13.6
O=C(N/N=C/c1cc([N+](=O)[O-])ccc1O)c1cccc2ccccc12	19.3	-3.6	-5.3	12.6	13.2	i	10.6	-18.6
O=C(COc1ccc(Br)cc1F)NC1CCN(Cc2ccccc2)CC1	-17.4	6.0	1.0	/	0.0	i	16.1	-8.1
O=C1NC2(CCCCC2)Cc2ccccc21	3.3	-1.5	0.9	-3.5	-0.7	i	9.5	-18.5
O=C(NCc1ccccc1)c1cc(C2CCCN(S(=O)(=O)c3cccc4cccnc34)C2)on1 (stereo unspecified)	/	-1.0	-8.3	?	/	/	/	-14.2

Hits appear at their usual frequency. About 3% of those tested had a hit in this group.
